RanGTP-Imp inh = inhibitors of RanGTP-importin-beta interaction, primary screen, biochemical, FRET, CFP-Ran, YFP-importin-beta, homogeneous. 1.1% of 300,000 active. AID 2216, 2009. Ran GTPase (GTP-bound) - importin-beta complex. cell-free CFP-Ran/YFP-importin-beta FRET ratio. inhibition, % (no concentration beside the values);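 active = most replicates above 15%; inconclusive = exactly half above 15%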;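 also: 0% = DMSO wells and 100% = Ran loaded with GDP instead of GTP; wells of about 40 µL received 100 nL stock; the first replicate is given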
FGF22 binding = binders of human FGF22 protein, primary screen, FGF22 synaptogenesis inhibitor project, biophysical, thermal shift, single point | 1.5% of 340,000 active | AID 651658, 2012 | calls only at 9.99 µM | recombinant FGF22 thermal shift, SYPRO orange fluorescence; percent of sucrose octasulfate shift, DMSO zero | Fibroblast growth factor 22 (Homo sapiens), Q9HCT0;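 active = melting point raised past a set limit in the mean and every replicate; inconclusive = no clear call; three in four hits are not shown here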
Target sequence (Q9HCT0 whole entry, looked up): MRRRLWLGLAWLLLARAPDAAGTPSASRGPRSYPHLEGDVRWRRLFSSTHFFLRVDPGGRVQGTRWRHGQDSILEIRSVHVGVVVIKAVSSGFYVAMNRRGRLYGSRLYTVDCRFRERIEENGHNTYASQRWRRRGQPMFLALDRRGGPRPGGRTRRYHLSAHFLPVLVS
Beta cell apopt = inhibitors of cytokine-induced beta cell apoptosis, primary screen, luminescence | INS-1E cytokine-induced death, ATP luminescence, 48 h; percent of positive-control rescue, neutral wells zero | 0.8% of 300,000 active | protection from apoptosis, % (no concentration beside the values);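 active = all replicates at 75% or more, or half of them and the mean; inconclusive = half reach 75% but not the mean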;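 also: 0% = cytokine-treated negative control wells and 100% = positive control rescue; higher means more ATP so stronger rescue from cytokine killing; wells of about 40 µL received 100 nL stock; the first replicate is given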
Ecoli rRNA inh = reduced GFP signal of wild-type E. coli, primary screen, bacterial rRNA inhibitor project, GFP/RFP fluorescence, OD600, single point | GFP signal change (wild-type ribosome), % (test concentration not listed) | AID 720706, 2013 | 1.6% of 350,000 active | E. coli WT GFP vs humanized-ribosome RFP mutants, 24 h; active compounds read low; DMSO median 0, no signal -100;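 active = significant combined selectivity score with lowered wild-type GFP, culture density cut under 30%, mutant RFP and density less affected; inactive = any of these conditions unmet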; also: one replicate is shown; some compounds called inactive have numbers as strong as hits
MLL AF4-AF9 inh = inhibitors of AF4 peptide binding to AF9, primary screen, biochemical, AlphaScreen, biotin-AF4 peptide, FLAG-AF9, single point | Protein AF-9 (Homo sapiens), P42568 | inhibition, % at 10 µM | 0.47% of 350,000 active | AID 651704, 2012;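 active = every replicate reaching a set inhibition limit, whatever the replicate mean, cut at about 25% in these data; inconclusive = mean inhibition reaches that limit but some replicates miss it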;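 also: 0% = plate neutral control median and 100% = total signal loss; the record names both 10 and 1 µM as test concentration; the first replicate is given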
Target sequence (P42568 whole entry, looked up): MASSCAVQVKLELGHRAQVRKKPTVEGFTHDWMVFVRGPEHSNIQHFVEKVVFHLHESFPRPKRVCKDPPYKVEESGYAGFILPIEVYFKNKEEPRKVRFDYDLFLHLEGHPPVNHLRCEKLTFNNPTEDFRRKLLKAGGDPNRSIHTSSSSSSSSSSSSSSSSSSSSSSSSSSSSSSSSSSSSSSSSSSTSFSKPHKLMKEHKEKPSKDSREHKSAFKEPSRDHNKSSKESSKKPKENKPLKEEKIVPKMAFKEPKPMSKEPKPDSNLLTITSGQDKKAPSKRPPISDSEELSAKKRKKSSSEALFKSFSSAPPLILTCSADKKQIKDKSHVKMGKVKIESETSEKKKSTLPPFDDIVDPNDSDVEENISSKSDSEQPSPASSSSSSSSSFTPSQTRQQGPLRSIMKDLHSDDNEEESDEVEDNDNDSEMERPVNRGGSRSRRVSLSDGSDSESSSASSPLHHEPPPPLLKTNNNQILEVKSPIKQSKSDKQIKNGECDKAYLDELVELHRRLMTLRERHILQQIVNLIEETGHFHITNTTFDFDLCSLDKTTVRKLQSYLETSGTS
Calb FLC = C. albicans growth inhibition with fluconazole, primary screen, CaCi-2 strain, Alamar Blue fluorescence; 0.57% of 300,000 active; C. albicans CaCi-2 (fluconazole-resistant clinical isolate) + fluconazole, 48 h; growth inhibition, % (test concentration not listed); AID 1979, 2009;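 active = most replicates above 75%; inconclusive = exactly half above 75%; inactive = most below 75%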;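 also: all wells also contain fluconazole at 8 µg/ml as a sub-toxic cotreatment; 0% = median of DMSO wells and 100% = median of geldanamycin control wells; wells of about 8 µL received 7.5 nL stock; the first replicate is given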
ALR H2O2 inh = inhibitors of human ALR sulfhydryl oxidase, primary screen, biochemical, H2O2 detection, HRP-luminol luminescence, single point | purified ALR, DTT oxidation | 3.8% of 290,000 active | AID 485317, 2010 | inhibition, % (concentration not given with the values);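 active = mean and each replicate at 75% or more; inconclusive = only one of the two met; inactive = neither met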;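 also: stock transfer was 7.5 nL into about 7.5 µL; 0% = neutral wells and 100% = wells with inactivated enzyme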
Target sequence (P55789 whole entry, looked up): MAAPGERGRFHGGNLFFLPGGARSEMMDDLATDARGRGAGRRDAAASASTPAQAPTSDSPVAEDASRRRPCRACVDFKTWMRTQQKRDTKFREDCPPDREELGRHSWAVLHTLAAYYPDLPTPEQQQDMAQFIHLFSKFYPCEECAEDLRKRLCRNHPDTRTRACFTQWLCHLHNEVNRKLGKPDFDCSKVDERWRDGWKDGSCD
T cruzi inh = inhibitors of intracellular T. cruzi growth, primary screen, luminescence, NIH3T3 host cells; inhibition, % (concentration not given with the values); T. cruzi beta-gal in NIH3T3, 90 h; 1.4% of 300,000 active;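 active = mean inhibition across valid replicates above about 55%, limit read from the data; inconclusive = mean below that limit but half or more replicates reach it; inactive = mean below it, under half of replicates reach it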;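 also: signal also drops with host cell toxicity which is not excluded here; 0% = plate median of DMSO wells and 100% = zero luminescence signal; higher percent means less beta-gal luminescence so fewer parasites; stock transfer was 50 nL into about 50 µL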
Ecoli rRNA inh OD600 = also measured in Ecoli rRNA inh; calls as there; OD600 change, %; measured here: OD600 growth;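 optical density of the mix in the first replicate; 0 = DMSO median and -100 = no signal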
Ecoli rRNA inh RFP = also measured in Ecoli rRNA inh; calls as there; RFP signal change, %; measured here: RFP humanized mutant strains;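 first replicate; 0 = DMSO median and -100 = no signal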
* = called active by the depositor; i = inactive; ? = inconclusive; · = no result given. Not all compounds are listed. The share of hits here may be higher or lower than overall.

SMILES	RanGTP-Imp inh	FGF22 binding	Beta cell apopt	Ecoli rRNA inh	Ecoli rRNA inh OD600	Ecoli rRNA inh RFP	MLL AF4-AF9 inh	Calb FLC	ALR H2O2 inh	T cruzi inh
O=C(NCc1ccccc1)C(=O)NCC1OCCN1S(=O)(=O)c1cccs1 (centres undefined)	9.7	i	1	3	7	-3.4	1.5	-2	-1	-13
COCc1nc2sc(C)c(C)c2c(=O)[nH]1	-2.1	·	-3	·	·	·	·	5	-1	5
O=C(Cc1ccc(Cl)cc1)NCCCn1ccnc1	2.7	·	4	·	·	·	·	0	-8	-6
Cc1ccc(-c2c(C(=O)N/N=C/C3CC=CCC3)nnn2-c2nonc2N)cc1 (centres undefined)	2.1	i	-6	2	7	-0.1	-2.6	8	-1	5
O=C(Nc1ccc(F)cc1)c1ccc2c(=O)n3c(nc2c1)CCCCC3	7.5	i	-1	-12	-16	-2.2	-0.9	10	-10	7
COC(=O)c1ccccc1NC(=O)c1noc2c1CCC2	1.4	·	-1	·	·	·	·	-22	-8	3
c1ccc(-c2nnc(N3CCN(c4ccccn4)CC3)c3ccccc23)cc1	1.9	·	14	·	·	·	·	0	·	36
O=C(Nc1cc(Sc2ccccn2)cc([N+](=O)[O-])c1)c1cccc(Cl)c1	-0.9	i	10	-10	-18	-4.3	4.4	113*	·	59*
N#CC1=C(N)Oc2cc(O)c(C=Nc3ccccc3)cc2C1c1ccccc1 (centres undefined)	?	i	-4	-23	-15	14	4.8	-6	·	-1
CCCCNC(=O)c1onc(CSc2ccccc2CC)c1C(=O)O	4.4	i	-5	-3	-5	11	-3.5	2	47	-5
Cc1nc(Nc2ccc(S(N)(=O)=O)cc2)oc1C	-1.0	·	-10	·	·	·	·	-10	-2	-15
O=C(CCN1CCN(Cc2ccccc2)CC1)NNC(=O)Nc1cccc(C(F)(F)F)c1	1.7	i	-1	-2	-7	1.4	3.3	-9	-19	15
CN(C)S(=O)(=O)c1ccc(C(=O)Nc2ccccc2C(=O)O)cc1	0.0	·	·	·	·	·	·	-1	22	-14
CC(Oc1ccccc1F)c1nnc(SCC(=O)N(c2ccccc2)C2CCS(=O)(=O)C2)o1 (centres undefined)	·	i	1	3	-7	-0.2	-19	·	-10	·
O=C(CSc1ncccc1C(=O)O)NC1CCCCC1	-9.9	i	-11	4	11	-3.1	0.5	-3	·	-7
Cc1nn(C(C)c2nc(-c3ccccc3)no2)c(C)c1[N+](=O)[O-] (centres undefined)	1.6	·	1	·	·	·	·	0	26	3
COc1ccc(/C=C/C(=O)OCC(=O)Nc2ncc(Cl)cc2Cl)cc1	·	i	2	6	5	3.7	-6.0	·	-5	·
O=C(CCNS(=O)(=O)c1cccc2nonc12)NCCc1ccc(Cl)cc1	3.2	·	6	·	·	·	·	-11	-3	0
Cc1cc(NC(=O)Cn2cc([N+](=O)[O-])cn2)n(Cc2ccc(F)cc2)n1	1.9	i	-3	2	0	2.1	2.4	2	2	2
COc1ccccc1N1CCN(C(=O)Nc2cccc(Cl)c2)CC1	1.0	i	1	-23	-30	18	-20	1	11	-4
CCCNc1nc2c(c(=O)[nH]c(=O)n2C)n1Cc1cccc(Br)c1	3.0	·	-3	·	·	·	·	-47	1	19
CC(Oc1cccc(Cl)c1)C(=O)NNC(=O)c1cccnc1 (centres undefined)	·	i	-5	9	21	-0.1	-5.6	·	12	·
CCc1ccc(/C=C2/SC(N3CCOCC3)=NC2=O)cc1	-2.0	i	0	-19*	-1.3*	-3.4*	4.5	-4	·	2
CCCS(=O)(=O)N1CCCC(C(=O)Nc2ccc3c(c2)CCC3)C1 (centres undefined)	3.6	i	-3	-1	0	-2.1	-0.7	12	-6	16
O=C(NNC(=S)NC1CC2C=CC1C2)c1cccnc1 (centres undefined)	-3.2	i	-1	8	16	4.9	3.5	-3	28	-14
FC(F)(F)c1cc(Cl)c2nnc(-c3cccnc3)n2c1	-3.2	·	-4	26	11	-3.5	-0.3	2	4	-3
COC(=O)c1ccccc1NC(=O)CN(CCc1ccccc1)S(C)(=O)=O	3.7	·	-3	·	·	·	·	17	-8	3
Cc1cccc(NC(=O)c2cccc(NS(=O)(=O)c3ccc(Cl)cc3)c2)c1	2.8	·	-4	·	·	·	·	-1	1	·
O=C(Nc1ccccc1)OCC(CN1CCCCC1)OC(=O)Nc1ccccc1 (centres undefined)	·	i	-2	7	-5	2.2	4.6	·	-5	·
NC(=O)Nc1ccc2c(c1)OCCO2	-11	·	-3	3	12	-3.2	·	-5	-4	-1
Cc1ccc(-n2cc(C(=O)c3ccc4ccccc4c3O)cn2)cc1	-11	·	-5	·	·	·	·	-1	-4	0
O=C1c2ccccc2-c2c1cccc2C(=O)N1CCOCC1	5.1	·	-1	·	·	·	·	7	-3	-2
C=CC[C@@H](CC(=O)N[C@@H](CO)Cc1ccccc1)C(=O)NCCOC(=O)[C@@H](CC=C)Cc1ccc(F)cc1	·	i	3	4	-2	0.2	-0.2	·	1	·
CCOC(=O)CSc1ccc2nnc(CCNS(=O)(=O)c3ccc(C)cc3)n2n1	2.5	·	1	·	·	·	-1.2	-2	-7	-2
COc1ccc(C2c3c(oc4ccccc4c3=O)C(=O)N2CCN2CCOCC2)cc1OC (centres undefined)	4.3	i	0	-2	-5	-3.4	12	-3	-9	-22
COc1cc(C2CC(=O)OC3=C2C(=O)CC(C)(C)C3)cc(OC)c1OC (centres undefined)	-4.2	i	-5	14	-3	-0.9	-1.2	-2	-12	0
COCCCNC(=O)/C(C#N)=C/c1c(N2CCCCCC2)nc2ccccn2c1=O	?	i	1	-5	-5	-0.2	1.7	-2	2	8
CCCCn1c(CNC(=O)C23CC4CC(CC(C4)C2)C3)nnc1SC(C)CC (centres undefined)	1.3	·	-6	·	·	·	·	-23	·	18
O=C(Nc1cccc2ccccc12)OC1C=CS(=O)(=O)C1 (centres undefined)	2.2	·	3	·	·	·	·	0	-3	-3
C/C(CCc1ccccc1)=N\NC(=O)C1C2CCCCC21 (centres undefined)	-0.5	i	-3	18	10	1.6	-0.8	-17	·	-5
CC(C)[C@H](NC(=O)[C@@H]1CSC2c3ccccc3C(=O)N21)C(=O)NC1CCCC1 (some centres undefined)	?	i	-5	4	0	4.5	-1.2	-10	·	-4
CC1CC(C)CN(C(=O)c2cc3c(s2)CCC3)C1 (centres undefined)	3.8	·	0	·	·	·	·	0	·	2
COc1ccccc1NC(=O)c1ccc(-n2ccnc2)c([N+](=O)[O-])c1	3.6	i	3	3	9	-1.5	-0.9	8	·	8
NC(=O)C1CCN(C(=O)NC(=O)c2ccccc2)CC1	0.0	i	2	2	7	5.0	-0.2	4	-13	-5
S=C(NCCc1ccccc1)NC1CC1	3.6	i	-9	11	1	-8.5	-0.9	?	·	-4
Oc1ccc(Br)cc1/C=N/NC(=S)NCCc1ccccc1	?	i	13	-47	-70	-10	1.4	-10	-1	-25
CC(Oc1ccc(Cl)cc1)C(=O)Nc1ccc(S(=O)(=O)N2CCOCC2)cc1 (centres undefined)	-5.7	i	3	-1	-47	-5.5	6.7	-1	-2	12
COc1ccc(N/C=C\C(=O)c2ccc(C)cc2)cc1OC	3.0	i	1	-29	-32	-1.2	3.0	3	-38	7
O=C(Nc1nnc(SCc2ccccc2)s1)c1cccs1	0.2	·	1	·	·	·	·	2	-1	-30
CCNC(=O)Cn1cnc2c1c(=O)n(C)c(=O)n2C	-0.7	·	-6	·	·	·	·	1	2	0
CC(C)C(NC(=O)c1ccccc1F)C(=O)Nc1ccc2c(c1)OCO2 (centres undefined)	2.7	i	0	13	16	-0.2	-1.9	-10	-3	7
CCn1cc(-c2ccccc2)c(C(=O)O)c1-c1ccc(OC)cc1	-0.2	i	-2	1	6	-6.4	-0.7	-8	85*	-23
NS(=O)(=O)c1ccc(NC2=CC(c3ccc(F)cc3)N(c3ccc(S(N)(=O)=O)cc3)C2=O)cc1 (centres undefined)	7.5	i	-1	-1	14	12	5.5	0	98*	3
COC(=O)/C=C/S(=O)(=O)c1ccc(NC(C)=O)cc1	-2.2	·	7	·	·	·	·	-20	98*	36
CCC(=O)Nc1c(C(=O)Nc2ccc3c(c2)OCCO3)oc2ccccc12	1.3	i	·	-3	-3	-1.7	-0.7	14	-6	-4
COc1ccc(N(CC(=O)NCCC2=CCCCC2)S(=O)(=O)c2ccc(C)cc2)cc1OC	-1.7	i	8	13	18	-3.6	-1.9	14	-13	46

Ten entries out of the list, arranged by molecular weight, low to high:
SMILES	RanGTP-Imp inh	FGF22 binding	Beta cell apopt	Ecoli rRNA inh	Ecoli rRNA inh OD600	Ecoli rRNA inh RFP	MLL AF4-AF9 inh	Calb FLC	ALR H2O2 inh	T cruzi inh
CCNC(=O)Cn1cnc2c1c(=O)n(C)c(=O)n2C	-0.7	·	-6	·	·	·	·	1	2	0
O=C(Cc1ccc(Cl)cc1)NCCCn1ccnc1	2.7	·	4	·	·	·	·	0	-8	-6
O=C1c2ccccc2-c2c1cccc2C(=O)N1CCOCC1	5.1	·	-1	·	·	·	·	7	-3	-2
O=C(CSc1ncccc1C(=O)O)NC1CCCCC1	-9.9	i	-11	4	11	-3.1	0.5	-3	·	-7
COc1ccc(N/C=C\C(=O)c2ccc(C)cc2)cc1OC	3.0	i	1	-29	-32	-1.2	3.0	3	-38	7
CCc1ccc(/C=C2/SC(N3CCOCC3)=NC2=O)cc1	-2.0	i	0	-19*	-1.3*	-3.4*	4.5	-4	·	2
CN(C)S(=O)(=O)c1ccc(C(=O)Nc2ccccc2C(=O)O)cc1	0.0	·	·	·	·	·	·	-1	22	-14
CC(C)C(NC(=O)c1ccccc1F)C(=O)Nc1ccc2c(c1)OCO2 (centres undefined)	2.7	i	0	13	16	-0.2	-1.9	-10	-3	7
Cc1cccc(NC(=O)c2cccc(NS(=O)(=O)c3ccc(Cl)cc3)c2)c1	2.8	·	-4	·	·	·	·	-1	1	·
C=CC[C@@H](CC(=O)N[C@@H](CO)Cc1ccccc1)C(=O)NCCOC(=O)[C@@H](CC=C)Cc1ccc(F)cc1	·	i	3	4	-2	0.2	-0.2	·	1	·
